# SIAE primary = human SIAE inhibitors, primary screen, biochemical, fluorescence polarization, FP-Rh probe, 1536-well HTS. Sialate O-acetylesterase (Homo sapiens), Q9HAT2. SIAE FP-Rh probe binding. inhibition, % at 9.66 µM. 370,000 tested, 0.69% active. AID 1053197, 2014;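 active means inhibition above a cutoff: mean of compounds within the control limits plus 3 SD of those, cut at about 17% in these data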;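 further: 0% = plate median of compound wells and 100% = probe without SIAE protein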
# Target sequence (Q9HAT2 whole entry, looked up): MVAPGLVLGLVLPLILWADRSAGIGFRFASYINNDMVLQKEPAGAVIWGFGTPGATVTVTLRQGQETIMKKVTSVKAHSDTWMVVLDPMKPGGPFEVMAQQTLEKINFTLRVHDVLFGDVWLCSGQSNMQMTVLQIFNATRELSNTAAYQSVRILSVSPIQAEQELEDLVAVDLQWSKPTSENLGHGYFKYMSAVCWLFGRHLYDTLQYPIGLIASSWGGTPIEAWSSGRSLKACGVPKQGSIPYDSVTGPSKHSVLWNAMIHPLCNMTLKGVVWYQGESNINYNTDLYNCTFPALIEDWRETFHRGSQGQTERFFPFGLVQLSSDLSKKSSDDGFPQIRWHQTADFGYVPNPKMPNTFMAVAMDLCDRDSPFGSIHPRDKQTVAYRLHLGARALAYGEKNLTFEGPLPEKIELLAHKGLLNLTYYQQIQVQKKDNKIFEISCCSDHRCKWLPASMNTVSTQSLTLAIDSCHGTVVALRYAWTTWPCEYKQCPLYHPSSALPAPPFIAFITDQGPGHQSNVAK
# PG9 Ab binder = binders of HIV-1 gp120 antibody PG9, primary screen, biochemical, TR-FRET | HIV-1 gp120 / PG9 antibody interaction | TR-FRET gp120-PG9 antibody binding | inhibition, % at 6.7 µM | 360,000 tested, 0.43% active | AID 624416, 2012; in the data active means inhibition above about 8.5%
# LEDGF integ inh = blockers of LEDGF/p75-dependent integrase strand transfer – biochemical, TR-FRET, high throughput, primary screen. AID 743269, 2014. inhibition, % at 3.7 µM. TR-FRET IN-LEDGF/p75 DNA integration, Eu/Cy5. 370,000 tested, 0.64% active. HIV-1 integrase (with human LEDGF/p75);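 active means inhibition above the screen-wide mean plus 3 SD, cut at about 13% in these data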;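 further: signal is the Cy5 over europium emission ratio at 671 and 618 nm; 0% = plate median of compound wells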
# rCAG binder = binders of r(CAG) RNA repeats, primary screen, biochemical, fluorescence | inhibition, % at 3 µM | r(CAG) RNA repeat, TO-PRO-1 dye displacement fluorescence | 370,000 tested, 1.3% active | AID 651821, 2012;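 active means inhibition above the plate cutoff, the mean of all test compounds on that plate plus 3 SD, cut at about 35% in these data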;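 further: 0% = DMSO alone and 100% = 100 µM mitoxantrone as full dye displacement; higher means more dye released from RNA so lower well fluorescence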
# HTRA1 inhibitor = HTRA1 serine protease inhibitors, primary screen, biochemical, fluorescence polarization, HTS; Q92743; recombinant HTRA1, FP-rhodamine activity-based probe; inhibition, % at 5.96 µM; 340,000 tested, 0.5% active; AID 504803, 2011; in the data active means inhibition above about 36%;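 further: 0% = enzyme with DMSO and 100% = wells lacking enzyme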
# An asterisk follows results filed as active; . = no result given; & = joins results of further samples.
SMILES,SIAE primary,PG9 Ab binder,LEDGF integ inh,rCAG binder,HTRA1 inhibitor
CC(C)[N+]1(C)[C@@H]2CC[C@H]1CC(OC(=O)C(CO)c1ccccc1)C2 (some centres undefined),7&-13,-3.4&3.0,1&4,2&3,3&2&1
CCCNCC(O)COc1ccccc1C(=O)CCc1ccccc1 (centres undefined),-6,-2.0,2,6,10
O=C(NCC1CCCCN1)c1cc(OCC(F)(F)F)ccc1OCC(F)(F)F (centres undefined),-4,-1.7,-1,3,5
CC(C)n1c(/C=C/[C@@H](O)C[C@@H](O)CC(=O)O)c(-c2ccc(F)cc2)c2ccccc21,-1,-1.2,2,31,9
COc1cc(/C=C/C(=O)/C=C(O)/C=C/c2ccc(O)c(OC)c2)ccc1O,-3,-0.7,4,21,5
Cc1ccc2cc(C)c3nnc(SCC(=O)N4CCN(C(=O)c5ccco5)CC4)n3c2c1,3,-4.3,0,-4,6
O=C1C(CCS(=O)c2ccccc2)C(=O)N(c2ccccc2)N1c1ccccc1 (centres undefined),6,-1.3,0,12,-4
CC1CC2C3CCC4=CC(=O)C=CC4(C)C3(F)C(O)CC2(C)C1(O)C(=O)CO (centres undefined),-4,-1.3,2,-1,3
S=c1nc(-c2cccc(Br)c2)[nH][nH]1,-1,1.6,2,5,3
CC(C)NC[C@H](O)COc1cccc2[nH]ccc12,8,0.3,-4,2,0
O=S(=O)(Nc1nnc(-c2ccccc2)s1)c1ccc(Cl)cc1,-9,1.9,-1,74*,-21
COc1cc(C(C)=O)ccc1OCC(=O)Nc1ccccc1N1CCCCC1,8,0.7,-2,-6,-19
CCN1CCN(C(=O)N[C@@H](C(=O)N[C@@H]2C(=O)N3C(C(=O)O)=C(CSc4nnnn4C)CS[C@H]23)c2ccc(O)cc2)C(=O)C1=O,-3,-1.3,3,8,4
COc1cccc(Nc2nc(NCC3CCCO3)c3ccccc3n2)c1 (centres undefined),7,-0.7,1,4,-12
Cc1cnc(C(=O)NCCc2ccc(S(=O)(=O)NC(=O)NC3CCCCC3)cc2)cn1,-5,0.8,4,3,4
CC(C)Nc1nc(NCc2ccccc2)c2sccc2n1,-1,4.1,1,-1,.
C(=C\c1ccccc1)/CN1CCN(C(c2ccccc2)c2ccccc2)CC1,2,-1.3,4,2,-6
O=C1c2ccccc2S(=O)(=O)c2cc(C(=O)N3CCC(C(=O)N4CCCCC4)CC3)ccc21,-3,-1.0,-3,-1,.

# 5 compounds already listed, ordered by the value under SIAE primary, high to low:
mol	SIAE primary	PG9 Ab binder	LEDGF integ inh	HTRA1 inhibitor
Cc1ccc2cc(C)c3nnc(SCC(=O)N4CCN(C(=O)c5ccco5)CC4)n3c2c1	3	-4.3	0	6
C(=C\c1ccccc1)/CN1CCN(C(c2ccccc2)c2ccccc2)CC1	2	-1.3	4	-6
S=c1nc(-c2cccc(Br)c2)[nH][nH]1	-1	1.6	2	3
COc1cc(/C=C/C(=O)/C=C(O)/C=C/c2ccc(O)c(OC)c2)ccc1O	-3	-0.7	4	5
CCCNCC(O)COc1ccccc1C(=O)CCc1ccccc1 (centres undefined)	-6	-2.0	2	10

# Arranged by number of heavy atoms (smallest number first): some entries from above.
SMILES,SIAE primary,PG9 Ab binder,LEDGF integ inh,rCAG binder,HTRA1 inhibitor
S=c1nc(-c2cccc(Br)c2)[nH][nH]1,-1,1.6,2,5,3
O=C(NCC1CCCCN1)c1cc(OCC(F)(F)F)ccc1OCC(F)(F)F (centres undefined),-4,-1.7,-1,3,5
O=C1C(CCS(=O)c2ccccc2)C(=O)N(c2ccccc2)N1c1ccccc1 (centres undefined),6,-1.3,0,12,-4
Cc1ccc2cc(C)c3nnc(SCC(=O)N4CCN(C(=O)c5ccco5)CC4)n3c2c1,3,-4.3,0,-4,6
CCN1CCN(C(=O)N[C@@H](C(=O)N[C@@H]2C(=O)N3C(C(=O)O)=C(CSc4nnnn4C)CS[C@H]23)c2ccc(O)cc2)C(=O)C1=O,-3,-1.3,3,8,4

# Not all compounds are listed; the hit share may differ from the screen's.
